# Screening data: PubChem, ICCB-Longwood Screening Facility, Harvard Medical School
# Bm FixLJ act – increases Burkholderia fixLJ two-component signaling; z-score (test concentration not listed); 0.3% of 29,000 active; B. multivorans fixK-promoter GFP reporter, 18 h; hits give high values;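 active means replicate mean overnight rise in green fluorescent reporter signal, 3 or more SD over negative controls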;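 further: score is relative to vehicle wells of the plate; 300 nL library stock went into each well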
# * marks the source's active call; other numbers are inactive results; & = joins results of further samples. The list is partial, so the mix of outcomes need not match the whole.
SMILES,Bm FixLJ act
Cc1noc(C)c1S(=O)(=O)N(CC(=O)Nc1ccc(C(F)(F)F)cc1)c1ccc(C(C)C)cc1,-0.98
Cc1oc(-c2ccc(Cl)cc2)nc1CN1CCC(C(=O)NCCCN2CCN(c3cccc(Cl)c3)CC2)CC1,-0.76
Cc1cc2ncn(CCCCOc3ccccc3)c2cc1C,-1.8
CCOc1ccccc1C1N=C(N)Nc2nc3ccccc3n21 (stereo not drawn),0.42
COc1ccc(CNC(=O)c2cc(-c3ccc(OC)cc3)on2)cc1,-0.69
COC(=O)c1cc2occc2n1Cc1nc(-c2ccc(C)cc2)oc1C,-0.77
O=C(C=Cc1cc(CO)cs1)NCc1cn2ccccc2n1,-2.2
Cc1ccccc1NC(=O)Cn1cc(S(=O)(=O)c2ccccc2)c(=O)c2ccccc21,-1.9
CCc1ccccc1NC(=O)COC(=O)c1cn(CC)c2nc(C)ccc2c1=O,-2.1
COC(=O)c1ccc(C2Nc3c(C)cccc3-c3cc(C)nn32)cc1 (stereo not drawn),0.53
CNC(C)C(=O)N1CCC2(CC1)OCCc1c2[nH]c2ccccc12 (stereo not drawn),-1.6
Cc1ccc(S(N)(=O)=O)cc1C(=O)N1CCCC(OCc2ccccn2)C1 (stereo not drawn),1
Cc1[nH]nc(-c2ccc(S(=O)(=O)N3CCC4CNCC43)o2)c1C (stereo not drawn),0.6
O=C(CS(=O)(=O)c1nc(-c2ccc(Cl)cc2)cn1-c1ccccc1)Nc1ccc(F)cc1F,-1.3
O=C(O)c1c2c(nc3ccc(S(=O)(=O)N4CCC(C(=O)NCc5ccc(Cl)cc5)CC4)cc13)CCCC2,1.3
Cc1nc2sc(C(=O)N(C)c3ccccc3)c(NC(=O)c3ccccc3Cl)c2c(C)c1C,-0.83
COc1cccc(CNC(=O)c2cc3c(=O)n(C)c4ccccc4c3n2C)c1,0.26
CSc1ccc(CCNC(=O)Cn2ncc3c(=O)oc4ccc(C)cc4c32)cc1,-0.63
CCN(CC)CCCC(C)Nc1ccnc2cc(Cl)ccc12 (stereo not drawn),-0.57&-1.3
COC(=O)CC1Oc2ccc(C)cc2-n2cc(-c3ccc(C)cc3)nc21 (stereo not drawn),0.13

# Ordered by length of the SMILES (lowest first): 5 of the compounds above
SMILES,Bm FixLJ act
Cc1cc2ncn(CCCCOc3ccccc3)c2cc1C,-1.8
O=C(C=Cc1cc(CO)cs1)NCc1cn2ccccc2n1,-2.2
COC(=O)c1ccc(C2Nc3c(C)cccc3-c3cc(C)nn32)cc1 (stereo not drawn),0.53
COC(=O)CC1Oc2ccc(C)cc2-n2cc(-c3ccc(C)cc3)nc21 (stereo not drawn),0.13
Cc1ccc(S(N)(=O)=O)cc1C(=O)N1CCCC(OCc2ccccn2)C1 (stereo not drawn),1

# Continued.
SMILES,Bm FixLJ act
Cn1c(CN2CCCCC2)nnc1C1CCN(Cc2cccnc2)CC1,-0.56
CCOC(=O)c1cc2c(=O)n3ccccc3nc2n(CC2CCCO2)c1=NC(=O)c1ccc(C(C)(C)C)cc1 (stereo not drawn),0.54
CCOc1ccc(NCc2cccn2-c2nnc(N3CCC(C(=O)NCc4ccccc4Cl)CC3)s2)cc1,0.4
O=C(Cn1c(=O)n(Cc2ccc(C(=O)NCc3ccc4c(c3)OCO4)cc2)c(=O)c2ccccc21)Nc1ccc(F)cc1F,-0.76
CCOC(=O)c1ccccc1NC(=O)CN(c1ccccc1)S(=O)(=O)c1ccc(OCC)cc1,0.43
Cc1cccc(NC(=O)CSc2nc3c(oc4ccccc43)c(=O)n2-c2ccc(F)cc2)c1,0.04
CC(=O)N1CCc2cc(S(=O)(=O)NC(CC(C)C)C(=O)NCCc3ccc(C)cc3)ccc21 (stereo not drawn),-2
CCc1cccc2c(-c3ccccc3)nc(SCC(=O)Nc3ccccc3OC)nc12,1.4
Cc1cc(N2CCCCC2)nc2ccc(NC(=O)/C=C/c3ccc(OC(C)C)cc3)cc12,-0.57
Cc1cc(OC(C)C(=O)Nc2c(C(=O)c3ccc(F)cc3)oc3ccccc23)ccc1Cl (stereo not drawn),-0.48
Cc1ocnc1C(=O)NC1CCC(NC(=O)CCc2nc3ccccc3[nH]2)C1 (stereo not drawn),-0.12
Cc1ccc(NC(=O)c2cc(S(=O)(=O)N3CCOCC3)c(Cl)cc2Cl)cc1,-2.7
C=C(C)CSc1nc(-c2ccccc2)cc(-c2ccc(OC)cc2)c1C#N,-0.87
CCOc1ccc(N(CC(=O)NCc2ccc(C)cc2)S(=O)(=O)c2c(C)noc2C)cc1,-1.4
O=C(NCCn1cccn1)[C@]12COCC1CN(Cc1ccncc1Cl)C2 (stereo partly drawn),-2.1
COc1ccc2c(c1)c(CC(=O)O)c(C)n2C(=O)c1ccc(Cl)cc1,-1.5&-0.63
COc1ccccc1N(CC(=O)NCCSCc1ccccc1)S(=O)(=O)c1ccc(C)cc1,1.2
Cc1sc(-n2cccc2)c(C(C)NC(=O)Nc2ccccc2Cl)c1C (stereo not drawn),0.81
Cc1ccc(-c2noc(CN(C(=O)c3ccc(C(C)(C)C)cc3)C(C)C)n2)cc1,1.4
O=C(c1ccc(F)cc1)n1nc(-c2ccccc2)nc1NCc1ccc(F)cc1,0.66

# Structures listed so far that have an NH in an aromatic ring:
SMILES,Bm FixLJ act
CNC(C)C(=O)N1CCC2(CC1)OCCc1c2[nH]c2ccccc12 (stereo not drawn),-1.6
Cc1[nH]nc(-c2ccc(S(=O)(=O)N3CCC4CNCC43)o2)c1C (stereo not drawn),0.6
Cc1ocnc1C(=O)NC1CCC(NC(=O)CCc2nc3ccccc3[nH]2)C1 (stereo not drawn),-0.12

# Next section:
SMILES,Bm FixLJ act
CCN1CC2(CCC1=O)CCN(C(=O)Nc1cccc(C)c1C)CC2,0.85
CN[C@@H](C)[C@@H](O)c1ccccc1,-1.5
CC(=O)Nc1ccc(NC(=O)c2c(C)nn(-c3ccccc3)c2-n2cccc2)cc1,-1.5
Cc1ccc(-n2nnnc2C2CCN(S(=O)(=O)c3ccc(OC(F)(F)F)cc3)CC2)cc1,0.89
COCCNc1sc(S(=O)(=O)c2ccc(C)cc2)nc1S(=O)(=O)c1ccc(C)cc1,2.8
Cc1ccc(-c2nc3c4c(-c5ccccc5)c(-c5ccccc5)oc4ncn3n2)cc1,-0.51
CCCN(CCC)CCCNC(=O)c1cc2c(-c3ccc(OC)c(OC)c3)nn(C)c2s1,-2.2
CCOC(=O)c1cccc2c1N[C@@H](c1ccc(F)cc1)[C@H]1CC=C[C@@H]21,-1
COc1ccc(Nc2oc(/C=C/c3ccc(OC)c(OC)c3)nc2C#N)cc1,-0.28
Cc1nc2c(C(=O)NCc3ccccc3Cl)c[nH]n2c(=O)c1Cc1cccc(Cl)c1,-0.41
CCC(C(=O)Nc1ccccc1OC)n1c(C(=O)OC)cc2sc(Cl)cc21 (stereo not drawn),0.87
COc1ccc(CCn2c(=O)c3cccnc3n(CC(=O)Nc3ccc(C)cc3C)c2=O)cc1OC,-0.65
CC1(C)SCC(C(=O)NCc2nc3ccccc3s2)NC1=O (stereo not drawn),-0.91
CCC(=O)N1CCc2cc(Br)cc(S(=O)(=O)N3CCCC(C(=O)NCc4ccc(C)cc4)C3)c21 (stereo not drawn),-2.2
COc1ccc(-c2cc(C(F)(F)F)nc(S(C)(=O)=O)n2)cc1,-2.6
Cc1ccc(CN(Cc2ccco2)C(=O)c2oc3ccc(C)cc3c2C)cc1,2
Cc1ccc(NC(=O)CSc2nnc(N)s2)c(C)c1,-2.2
COc1cc(CN(C)Cc2c(C)noc2C)ccc1OCC(=O)N1CCOCC1,-0.5
N#Cc1c(-n2ncnc2-c2ccccc2C(F)(F)F)sc2c1CCCCC2,-1.4
O=C1Nc2ccc(Cl)cc2[C@@](C#CC2CC2)(C(F)(F)F)O1,-1.4
O=C(Nc1cccc(Cl)c1)C(Cc1ccccc1)n1cccc1 (stereo not drawn),-2.6
Cc1nc2cc(CNC(=O)CCCN3CCCCC3)ccc2n1C,0.26
O=C(c1ccc2c(Cl)c3c(nc2c1)CCCC3)N1CCN(c2cccc(C(F)(F)F)c2)CC1,-1.5
O=C(O)c1cccc(Nc2ncnc3ccc(Br)cc23)c1,-1.7
Cc1sc2c(c1C)c(=O)n(-c1cccc(C(F)(F)F)c1)c(=O)n2Cc1ccccc1C#N,0.98
CC1CCCCN1Cc1cccc(NC(=O)NCCNc2cccnc2)c1 (stereo not drawn),-0.27
Cc1ccc2c(c1)c1c(c(=O)n(-c3cccc(Cl)c3)c(=O)n1CC(=O)c1ccc(Cl)cc1)n2C,1.8
CC(C)c1nc(CNC(=O)c2cc3c(n(-c4ccccc4)c2=O)CCCC3=O)no1,-0.51
O=C(NCc1ccc(Cl)cc1Cl)c1cccc(N2CCCS2(=O)=O)c1,-1.4
CCOC(=O)c1sc(NC(=O)C2c3ccccc3Oc3ccccc32)c(C#N)c1C,0.47
CCOC(=O)c1ccc2nc(C)cc(Nc3ccc(OC(C)C)cc3)c2c1,-0.62
Cc1ccoc1C(=O)NCC1CCN(Cc2ccc3ccccc3n2)C1 (stereo not drawn),-0.12
COc1ccc(NC(=O)CCN2CCN(CCO)CC2)cc1,-3.1
Cc1ccc(C)c(N2CCN(C(=O)CN3C(=O)COc4ccc(S(=O)(=O)N5CCOCC5)cc43)CC2)c1,0.16
Cc1cccnc1CN1CCN(CCn2cnnc2C)CC1,0.07
O=C(NCc1cccnc1)c1nn(-c2ccccc2F)nc1CO,-0.74
CCOC(=O)N1CCC(NC(=O)c2ccc3c(c2)N(Cc2ccccc2C)C(=O)c2ccccc2S3=O)CC1 (stereo not drawn),-1.3
CCOCCCNC(=O)C1CCN(C(=O)c2cc3sccc3n2C)CC1,-0.91
COc1ccc2[nH]c(C)c(CCNS(=O)(=O)c3cc(F)ccc3OC)c2c1,-2.6
COc1ccc(-c2csc(-c3c(N)c(C(=O)c4ccc(OC)c(OC)c4)n4ccccc34)n2)cc1,-2.1

# Among those listed so far, 2 contain a tert-butyl group:
SMILES,Bm FixLJ act
CCOC(=O)c1cc2c(=O)n3ccccc3nc2n(CC2CCCO2)c1=NC(=O)c1ccc(C(C)(C)C)cc1 (stereo not drawn),0.54
Cc1ccc(-c2noc(CN(C(=O)c3ccc(C(C)(C)C)cc3)C(C)C)n2)cc1,1.4

# (further entries)
SMILES,Bm FixLJ act
Cc1cnc(N2CCC(OCc3ccccn3)CC2)nc1N(C)C,-0.46
CC1CCN(C(=O)c2cc3c(=O)n(C)c4ccccc4c3s2)CC1,-1.8
Cc1cc(C)n(-c2nc3ccccc3nc2Nc2ccc(Cl)c(C(=O)OC(C)C)c2)n1,0.06
CCc1nc2ccccc2n2c(-c3ccc(C)cc3)c3c(=O)n(C)c(=O)n(C)c3c12,-1.7
CCCN1CCC(Cc2noc([C@@]34CC[C@@](C)(OC3=O)C4(C)C)n2)CC1,-1.4
CC(CNC(=O)CCC(=O)NC1CCCC1)Oc1cccnc1 (stereo not drawn),-2.3
CCCC12CN3CC(C)(CN(C1)C3c1c(C)[nH]c(=O)[nH]c1=O)C2=O (stereo not drawn),-1.1
COc1ccc(OCC(=O)N(Cc2sccc2C)C2CCS(=O)(=O)C2)cc1 (stereo not drawn),-2.1
NS(=O)(=O)c1cc2c(cc1C(F)(F)F)NCNS2(=O)=O,0.65
CC(C)C(NS(=O)(=O)c1ccc2c(c1)oc(=O)n2C)C(=O)NCCc1ccccc1 (stereo not drawn),-0.49
CCN1Cc2nc(OC)c(CNC(=O)CCN3CCCCO3)cc2C1=O,0.19
COC(=O)CN1C(C(=O)c2ccccc2)=C(OC(=O)c2ccc(C)cc2)c2ccccc2S1(=O)=O,1.6
COc1cc(C(=O)NCc2ccc(OCCN(C)C)cc2)cc(OC)c1OC,-2.4
COc1ccc(C(=O)COC(=O)CCCC(=O)Nc2cc(C(F)(F)F)ccc2Cl)cc1,0.49
CC(C)C(Nc1cc(-c2ccccc2F)nc2ccnn12)c1ncnn1C (stereo not drawn),0.06
COc1ccc(-c2csc3nc(-c4ccc(Cl)cc4)oc(=O)c23)cc1,-0.59
COc1cc(NC(=O)c2cc3c(=O)oc4ccc(C)cc4c3s2)cc(OC)c1OC,-1.6
CCC(=O)N1CCCC(c2nnc(CN3CCC(O)CC3)n2C)C1 (stereo not drawn),-0.11
CCOc1ccc2nc(N3CCCC(C(=O)Nc4cc(Cl)c(OC)cc4OC)C3)sc2c1 (stereo not drawn),0.68
COC(=O)c1ccc(NC(=O)CN2C(=O)CC(c3ccccc3)Sc3ccccc32)cc1 (stereo not drawn),-0.88

# The last 3 records of the part before are carried over, then new ones follow:
SMILES,Bm FixLJ act
CCC(=O)N1CCCC(c2nnc(CN3CCC(O)CC3)n2C)C1 (stereo not drawn),-0.11
CCOc1ccc2nc(N3CCCC(C(=O)Nc4cc(Cl)c(OC)cc4OC)C3)sc2c1 (stereo not drawn),0.68
COC(=O)c1ccc(NC(=O)CN2C(=O)CC(c3ccccc3)Sc3ccccc32)cc1 (stereo not drawn),-0.88
CCn1cnnc1CCNC(=O)c1csc2nc(-c3ccccc3C)cn12,-1.2
Cc1ccc(Nc2c(-c3ccsc3)nc3cccc(C)n23)cc1,0.3
COc1ncc(CNCC2CCCN(CCc3ccccc3)C2)cn1 (stereo not drawn),-4.2
CCOC(=O)c1c(NC(=O)CSc2cn(CCNC(=O)c3ccccc3F)c3ccccc23)sc2c1CCCC2,-0.04
CCn1c(CNC(=O)c2ccc(OC)cc2)nnc1SCC(=O)Nc1cccc(C)c1,0.58
COC1CC[C@@]2(OC)CCN(C(=O)c3cc(-c4ccc(F)cc4)n[nH]3)C2C1 (stereo partly drawn),-1.9
COc1ccc(CCN2C(=O)N(c3ccc(C)cc3)C(=O)C2CC(=O)Nc2ccc(OC)cc2)cc1 (stereo not drawn),-1.1
COc1ccc(Cn2c(=O)[nH]c3cc(C(=O)N4CCN(c5cccc(Cl)c5)CC4)ccc3c2=O)cc1,-1.5
O=S(=O)(c1cccs1)N1CCN(c2ccc(Cl)cc2)CC1,0.89
C[C@]12CCC(=O)C=C1CCC1C2CC[C@@]2(C)C1CC[C@@H]2O (stereo partly drawn),-3.6
Cc1ccc(NC(=O)C(=O)NCC2(c3ccccc3)CCCC2)cc1C,-0.46
CN(Cc1cccc(-c2nn[nH]n2)c1)Cc1cncn1C1CCCCC1,-0.14
Cc1ccc(Nc2nc(Nc3ccc(C)c(C)c3)nc(N3CCOCC3)n2)cc1C,-0.87
COc1ccccc1NC(=O)C1CCN(S(=O)(=O)c2ccc3c(c2)oc(=O)n3C)CC1,-1.6
Nc1nc(-c2ccc(Oc3ccccc3)cc2)c2cn[nH]c2n1,-0.62
